CBX7 inh – blocks human CBX7 binding to H3K27me3 peptide; O95931; AlphaScreen His6-CBX7 / biotin-H3K27me3 peptide binding; active compounds read low; normalised signal (fraction of DMSO) (test concentration not listed); 66,000 tested, 1.1% active; AID 1224903; in the data active means normalised signal below about 0.5;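 further: 100 nL library stock added to about 20 µL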
Target sequence (O95931 whole entry, looked up): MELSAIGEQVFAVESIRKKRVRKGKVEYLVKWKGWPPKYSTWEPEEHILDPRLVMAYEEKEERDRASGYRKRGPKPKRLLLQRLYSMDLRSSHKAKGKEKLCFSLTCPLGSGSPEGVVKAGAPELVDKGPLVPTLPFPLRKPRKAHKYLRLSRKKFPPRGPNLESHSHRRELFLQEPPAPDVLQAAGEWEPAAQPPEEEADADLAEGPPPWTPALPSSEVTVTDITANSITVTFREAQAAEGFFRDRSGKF
CBX7 inh z-score – further read-out of CBX7 inh, marked with its call; z-score; measured here: z-score of CBX7 signal; some inactives read as strong as hits; reference of the scale not given here;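 same signal on another scale; lower means less binding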
The depositor's hits bear a star; & = joins results of further samples. Not all compounds are listed; count on the stated rates, not on these rows.

SMILES	CBX7 inh	CBX7 inh z-score
CCOC(=O)N1CCC(NC(=O)c2ccc3c(c2)N(Cc2ccccc2)CCS3)CC1	0.764	-0.313
COc1ccc(CNc2nc(-c3ccccc3OC)cc(C(F)(F)F)n2)cc1	1.19	7.65
CCOC(=O)c1ccccc1Nc1cc(C)nc2nnnn12	0.906	-1.26
CCC(C)NC(=O)c1c[nH]c2ccc(S(=O)(=O)Nc3ccc4c(c3)OCCO4)cc2c1=O (configuration not stated)	0.943	-0.246
C=C(C)Cn1c(C2CC(=O)N(c3ccc(Br)cc3)C2)nc2ccccc21 (configuration not stated)	1.11	0.716
CCC(Cc1ccccc1)NC(=O)C1CCCN(c2nnc(-n3cccc3)s2)C1 (configuration not stated)	1.12	2.71
C=CCc1ccccc1OCC(O)CN1CCC(C)CC1 (configuration not stated)	1.51	4.36
Cc1noc(C)c1S(=O)(=O)NCc1ccc2c(c1)OCO2	1.02	1.23
COc1ccc(-n2c(Cc3cc(=O)[nH]c(=O)[nH]3)nnc2SC(C)C)cc1	1.02	0.252
O=c1[nH]c2ccccc2nc1Cc1ccc(Cl)cc1Cl	0.942	-1.74
Cn1c2ccccc2c2c(C(=O)N3CCN(Cc4ccccc4)CC3)cn(C3CCCC3)c(=O)c21	0.962	-1.09
O=C(Nc1ccc(C(F)(F)F)cc1Cl)C1CCCN(S(=O)(=O)c2cccc3cccnc23)C1 (configuration not stated)	1	0.0636
O=C(NCCN1CCOCC1)c1cc2c(s1)CS(=O)(=O)C2	1.11	3.1
CCc1nc2c(cnn2-c2ccc(C)cc2)c(=O)n1-c1ccc2c(c1)OCCO2	0.977	-0.465
CCn1c(C(O)c2ccc3c(c2)OCO3)nc2ccccc21 (configuration not stated)	0.992	-0.212
CCOC(=O)N1CCC(NC(=O)Nc2ccc3snnc3c2)CC1	0.986	-0.556
Cc1nc2ncccn2c1-c1csc(Nc2cccc(C(=O)O)c2)n1	0.785&1.08	-2.47&1.1
COC(=O)c1cc2sc(Cl)cc2n1Cc1cccc(F)c1	1.03	0.937
COc1ccc(O)c(-c2cc(-c3ccc(Cl)cc3)n[nH]2)c1	0.698	-7.51
COc1ccc(Br)cc1CNC(=O)c1cc(=O)[nH]c2ccccc12	1.01	0.422
Cc1c(C(=O)N(C)CCC#N)oc2ccc(S(=O)(=O)N3CCCCCC3)cc12	1.02	0.241
Cc1csc(NC(=O)c2cc3c(s2)-c2ccccc2OC3)n1	1.08	1.97
COc1ccc(-c2cc(-c3cc(Cl)ccc3O)[nH]n2)cc1OC	0.922	-3.2
Cc1c(Cl)cccc1NC(=O)Nc1ccc2snnc2c1	1.06	2.26
Clc1ccccc1/C=C/c1nc(-c2cccnc2)no1	1.17	2.2
SMILES	CBX7 inh	CBX7 inh z-score
CCOc1ccc(CCNC(=O)c2cccc3c2C(=O)N(c2ccc(OC)cc2)C3)cc1OCC	1.01	0.298
COc1cc(/C=C/c2cc(C(F)(F)F)[nH]c(=O)n2)ccc1OCc1ccccc1F	1.02	0.415
O=C(Nc1ccc(Br)cc1)c1cc2n(n1)C(C(F)(F)F)CC(c1cccs1)N2 (configuration not stated)	0.996	-0.0805
CCc1ccc(CNC(=O)CCc2nc(-c3cccs3)no2)cc1	1.01	0.5
CCC1Oc2ccc(C)cc2N(CC(=O)NCCc2ccc(OC)c(OC)c2)C1=O (configuration not stated)	0.927	-0.845
COc1ccc(-c2nn(C)c3sc(C(=O)N4CCN(c5ccccc5F)CC4)cc23)cc1OC	0.891	-3.06
COc1ccc(CCN2C(=O)C3C4CC(=O)C(c5ccccc54)C3C2=O)cc1OC (configuration not stated)	1	-0.00501
O=c1oc2cc(O)ccc2cc1-c1nnc(Nc2ccccc2F)s1	0.965	-0.689
Cn1c(C(=O)N2CCC(C(=O)NCCCSC3CCCCC3)CC2)cc2sccc21	1.13	1.63
Fc1ccc(-c2ccc(-c3noc(-c4ccccc4Cl)n3)cc2)cc1	1.04	1.45
COc1cccc(Nc2nc(-c3ccc(-c4ccccc4)cc3)cs2)c1	0.633	-10.3
COc1ccc2cc(CCNC(=O)CCc3ccccc3)c(=O)[nH]c2c1	1.08	2.61
O=C(NCc1ccc2c(c1)OCO2)c1ccc2c(c1)ncn2-c1ccc(F)cc1F	0.976	-0.585
COc1ccc(-n2c(Cc3cc(=O)[nH]c(=O)[nH]3)nnc2SCC(=O)N2CCOCC2)cc1	0.822	-2.72
O=c1[nH]c2ccc(S(=O)(=O)N3CCc4ccccc43)cc2[nH]c1=O	0.921	-1.77
COc1ccc(OC)c(C2=NOC(C(=O)Nc3ccc4c(c3)OCO4)C2)c1 (configuration not stated)	0.804	-7.32
Cc1ccc2nc(-c3ccc(NC(=O)CC(C)C)cc3)sc2c1	1.18	1.61
CCOC(=O)COc1ccc2c(=O)c(-c3ccc(OC)c(OC)c3)c(C(F)(F)F)oc2c1	1.04	0.934
O=c1[nH]cnc2nn(-c3ccccc3)nc12	1.16	1.2
Cc1cccc(NC(=O)C(Cc2ccccc2)NS(=O)(=O)c2ccc3c(c2)CCC(=O)N3)c1 (configuration not stated)	1.04	0.831
Cc1nc(Nc2cccc(Cl)c2)c2c3c(sc2n1)CCC3	0.659	-3.6
Cc1nc2cc(-c3ccc(C(C)(C)C)cc3)[nH]n2c(=O)c1Cc1ccccc1	0.899	-1.88
CN(Cc1ccccc1)C(=O)CNC(=O)Cn1cnc2sc3c(c2c1=O)CCCC3	1.03	0.996
Cc1ccccc1-c1nc(CSCC(=O)NCc2ccccc2Cl)c(C)o1	0.975	-0.398
Cc1ccc(-c2csc(NC(=O)CCN3C(=O)c4ccccc4C3=O)n2)cc1	0.997	-0.07
SMILES	CBX7 inh	CBX7 inh z-score
COc1ccccc1NC(=O)Cc1c(C(=O)O)[nH]c2ccccc12	1.05	2.1
CC(C)(C)c1ccc(C(=O)Nc2ccc(S(=O)(=O)N3CCCCCC3)cc2)cc1	1.05	1.35
CCCn1c(C(O)c2ccc(OCC)cc2)nc2ccccc21 (configuration not stated)	0.977&0.961	-0.595&-0.183
CC1CCN(C(=O)c2ccc3c(c2)N(Cc2ccccc2)C(=O)c2ccccc2S3(=O)=O)CC1	0.908	-1.43
Cc1cccc(CN2CCN(CC(=O)NC3CCCCCCC3)C2=O)c1	0.941	-1.2
CCN(CC)CCCNC(=O)c1oc2ccc(S(=O)(=O)N3CC(C)CC(C)C3)cc2c1C (configuration not stated)	1.96	9.71
CCN(CC)CCn1c(/C=C/c2ccc(Cl)cc2)nc2cc3ccccc3cc2c1=O	1.14	2.75
Cc1ccc(-c2nc(C#N)c(NCCCN3CCOCC3)o2)cc1	0.969	-0.337
CCCC(=O)NC(c1ccccc1OC)c1cc(Cl)c2cccnc2c1O (configuration not stated)	0.841	-0.559
Cc1cc(C)c(NC(=O)CSc2nccn2C)c(C)c1	0.968	-0.366
O=C(Cn1c(Cc2ccccc2)nc2sc3c(c2c1=O)CCCC3)Nc1cccc(C(F)(F)F)c1	0.938	-1.07
CC(CCc1ccccc1)NC(=O)C1c2ccccc2C(=O)N2CCc3ccccc3C12 (configuration not stated)	0.912	-0.0872
CCc1ccc2oc(-c3cccc(NC(=O)c4cccnc4)c3)nc2c1	1.01	0.153
COc1ccc(CCNC(=O)C2c3ccccc3C(=O)N2Cc2ccccc2)cc1OC (configuration not stated)	1.04	0.411
Cc1ccc2nc(SCC(=O)Nc3cccc(C)c3C)[nH]c2c1	0.814	-1.22
CCCc1ccc(-c2ccc(C(=O)Nc3nc4ccc(OCC)cc4s3)cc2)nc1	1.12	2.04
CC1(C)CC(=O)c2sc(NC(=O)c3cccc(Oc4ccccc4)c3)nc2C1	0.95	-1.23
O=C(c1ccc2c(c1)ncn2-c1ccc(OCc2ccccc2)cc1)N1CCOCC1	0.992	-0.183
c1ccc(Sc2ncnc3c2oc2ccccc23)nc1	1.46	0.943
CCOC(=O)C1CCCN(c2c(Nc3cccc(C)c3)c(=O)c2=O)C1 (configuration not stated)	1.03	0.864
COc1ccc(C2CC(=O)Nc3cc4c(cc32)OCO4)cc1OC (configuration not stated)	1.01	0.237
O=c1c(-c2ccccc2)c(C(F)(F)F)oc2c(CN3CCCCC3)c(O)ccc12	1.04	1.31
Cc1ccnc(Nc2nc(C)c3cccc(C)c3n2)n1	1.04	1.52
COc1ccc(OCc2nc(-c3cccc(C)c3)no2)cc1	1.14	1.8
Cc1cc(C(=O)NCCN2CCOCC2)n(-c2ccccc2)n1	0.954	-1.17

6 of the entries above in order of the CBX7 inh z-score value, smallest number first:
SMILES	CBX7 inh z-score
Cc1cccc(CN2CCN(CC(=O)NC3CCCCCCC3)C2=O)c1	-1.2
Cc1cc(C(=O)NCCN2CCOCC2)n(-c2ccccc2)n1	-1.17
O=C(c1ccc2c(c1)ncn2-c1ccc(OCc2ccccc2)cc1)N1CCOCC1	-0.183
CCOC(=O)C1CCCN(c2c(Nc3cccc(C)c3)c(=O)c2=O)C1 (configuration not stated)	0.864
CCCc1ccc(-c2ccc(C(=O)Nc3nc4ccc(OCC)cc4s3)cc2)nc1	2.04
CCN(CC)CCCNC(=O)c1oc2ccc(S(=O)(=O)N3CC(C)CC(C)C3)cc2c1C (configuration not stated)	9.71

Further records follow.
SMILES	CBX7 inh	CBX7 inh z-score
CC1CCc2c(C(=O)NCCCN3CCc4ccccc4C3)csc2C1 (configuration not stated)	1.01	0.379
CC(NC(=O)c1c(F)cccc1F)c1nc2ccccc2[nH]1 (configuration not stated)	1.13	1.69
COCCCNC(=O)c1ccc2c(c1)N=C(C)c1ccccc1S2	1.01	0.111
O=C(CC1Oc2ccccc2NC1=O)Nc1c(F)cc(F)cc1Br (configuration not stated)	0.984	-0.0911
COc1ccc(CNC(=O)C2c3ccccc3C(=O)N3CCc4ccccc4C23)cc1 (configuration not stated)	0.938	-1.02
CC(C)(C)OC(=O)N1CCC(c2c(C(=O)Nc3ccccc3F)cnn2-c2ccccc2)CC1	0.969	-0.789
CC(=O)N1CCc2cc(S(=O)(=O)Nc3ccc(OC(F)(F)F)cc3)ccc21	0.855	-0.587
Cc1nnc(NC(=O)c2cn(C)c(=O)c3ccccc23)s1	0.952	-1.17
Cc1cc(-c2ccccc2)n(-c2cc(Cl)ncn2)n1	1.2	2.03
O=C(CN1C(=O)CCSc2ccccc21)NCCCN1CCN(Cc2ccccc2)CC1	1.02	0.724
Cc1ccc2nc(-c3ccc(Cl)cc3)cc(C#N)c2c1	1.15&1.03	2.64&1.39
CCOCCCNC(=O)CN1C(=O)COc2ccc(S(=O)(=O)N3CCCCCC3)cc21	1.04	1.27
NS(=O)(=O)c1ccc(CCNC(=O)c2ccc3c(=O)n(CCc4ccccc4)c(=O)[nH]c3c2)cc1	0.966	-0.848
O=C(Nc1ccc(F)c(F)c1)C1CCN(S(=O)(=O)c2cccc3cccnc23)CC1	0.99	-0.131
COCCCNC(=O)c1ccc2c(c1)nc(C)n2-c1cc(OC)c(OC)c(OC)c1	0.991	-0.413
O=C(COc1cccc(C(F)(F)F)c1)Nc1ncc(Cc2cc(Cl)ccc2Cl)s1	0.87	-2.44
Cc1cccc(N2CCN(C(=O)c3cc4sc(Cl)cc4n3C)CC2)c1C	0.792	-8.33
Cc1ccc(-c2nc(C(=O)NC3CC3)c(C)o2)cc1	1	0.0366
CCCCNC(=O)c1c[nH]c2ccc(S(=O)(=O)N(CC)c3ccccc3)cc2c1=O	1.21	3.19
COc1cccc(NC(=O)Nc2nc3c(s2)CC(C)CC3)c1 (configuration not stated)	0.943	-1.38
O=C(NC1CCCCC1)c1nnc(Cc2ccc(F)cc2)o1	0.983	-0.201
CCOC(=O)N1CCN(c2c(NC3CCC(C)CC3)c(=O)c2=O)CC1 (configuration not stated)	1.01	0.152
CCOC(=O)c1cc(-c2ccccc2)n(CCC(=O)Nc2ccc(CC)cc2)c1C	0.929	-1.28
Cc1onc(-c2c(Cl)cccc2Cl)c1C(=O)N1CCN(c2ccc(F)cc2)CC1	0.921	-1.75
COc1ccc(-n2nc(C(=O)Nc3ccc(C)cc3Br)c3ccccc3c2=O)cc1	0.988	-0.315
SMILES	CBX7 inh	CBX7 inh z-score
CCc1ccc(-c2nc(CN3CCCC(C(=O)NCCCOC)C3)c(C)o2)cc1 (configuration not stated)	0.917	-0.989
COc1cc(OC)cc(-c2cc3nc(C)c(CCC(=O)Nc4cc(OC)ccc4OC)c(C)n3n2)c1	0.861	-2.7
CCOC(=O)c1cnc2c(C)cccc2c1Nc1ccccc1OC	0.913	-2.41
Cc1cc(NCc2ccccc2Cl)n2nc(C)nc2n1	1.02	0.472
Cc1nc2cc(C(=O)NCCN3CCOCC3)ccc2n1-c1cccc(F)c1	0.992	-0.356
COc1ccc(C2CC(=O)N(CC(=O)Nc3ccc(Cl)cc3)c3ccccc3S2)cc1OC (configuration not stated)	0.885	-1.64
COc1cc(NC(=O)Cn2c(SCc3cccc(C)c3)nc3ccncc32)cc(OC)c1	0.976	-0.334
CC1CCN(S(=O)(=O)c2cccc(C(=O)Nc3ccccc3C(=O)N3CCOCC3)c2)CC1	1.15	2.32
Cc1nc2sccn2c1-c1csc(NCc2ccccc2)n1	0.823	-2.57
CC(C(=O)Nc1ccc(F)cc1F)N1C(=O)CC(C)(C)Sc2ccccc21 (configuration not stated)	1.03	1.02
Oc1ccc(-c2nc3ncccn3c2Nc2cccc(C(F)(F)F)c2)cc1	1.07	3.01
Cc1ccc2nc(-c3ccccn3)c(Nc3ccccc3)n2c1	0.109*	-19.2*

Record cards (already shown). Screens in order: CBX7 inh	CBX7 inh z-score
Cc1nc2cc(C(=O)NCCN3CCOCC3)ccc2n1-c1cccc(F)c1 as listed: 0.992	-0.356
Cc1cc(NCc2ccccc2Cl)n2nc(C)nc2n1 as listed: 1.02	0.472
CCOC(=O)c1cnc2c(C)cccc2c1Nc1ccccc1OC as listed: 0.913	-2.41
Oc1ccc(-c2nc3ncccn3c2Nc2cccc(C(F)(F)F)c2)cc1 as listed: 1.07	3.01
COc1ccc(C2CC(=O)N(CC(=O)Nc3ccc(Cl)cc3)c3ccccc3S2)cc1OC (configuration not stated) as listed: 0.885	-1.64

3 compounds out of the list, arranged by molar mass, falling.
SMILES	CBX7 inh	CBX7 inh z-score
COc1cc(OC)cc(-c2cc3nc(C)c(CCC(=O)Nc4cc(OC)ccc4OC)c(C)n3n2)c1	0.861	-2.7
COc1cc(NC(=O)Cn2c(SCc3cccc(C)c3)nc3ccncc32)cc(OC)c1	0.976	-0.334
Cc1nc2cc(C(=O)NCCN3CCOCC3)ccc2n1-c1cccc(F)c1	0.992	-0.356

Compound activity: PubChem BioAssay, several laboratories
